Vaccinia stage – blocks a specific stage of Vaccinia orthopoxvirus infection | AID 1053133 | activity change (mCherry), % (concentration not given with the values) | hit rate 0.01% among 89,000 | Vaccinia-infected cells, mCherry/Venus stage reporter fluorescence; stronger effect = lower value; some inactives read as strong as hits;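 active = mCherry past -33% and 40 or more points under the early reporter, replicates agreeing; inconclusive = past -33% without that gap or agreement; tested in A549 cells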;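 note: scaled between vehicle wells and reference inhibitor wells; 23 nL library stock went into each well; one replicate is shown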
Vaccinia stage Venus – also measured in Vaccinia stage; calls as there; activity change (Venus), %; measured here: Venus reporter, other viral stage;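 negative = less Venus signal; first of two replicates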
Numbers without * were called inactive; ? = inconclusive; · = no result given; & = joins results of further samples. Only part of the results is shown. The share of hits here may be higher or lower than overall.

compound | Vaccinia stage Venus | Vaccinia stage
COc1ccc2c3c(n(C)c2c1)[C@H](CO)N(Cc1ccncc1)CC31CCN(C(=O)C2CCC2)CC1 | -1.9 | -9.7
CCC(=O)Nc1ccc2c(c1)C(=O)N(C)[C@@H]1CC[C@H](CC(=O)NC3Cc4ccccc4C3)O[C@@H]1CO2 | 0.6 | -5.9
CCS(=O)(=O)N(C)C[C@@H]1N[C@H](CO)[C@@H]1c1ccc(C2=CCCCC2)cc1 | 5.8 | 1.1
CCCNC(=O)N1[C@H](CO)[C@H](c2ccccc2-c2ccccc2F)[C@@H]1C#N | -1.0 | -7.1
COCC(=O)N1C[C@@H](C)[C@H](OC)CN(C)C(=O)c2cc(NC(=O)c3cc(C)on3)ccc2OC[C@H]1C | 9.7 | -1.3
CO[C@@H]1CN(C)C(=O)c2ccc(NS(C)(=O)=O)cc2OC[C@@H](C)N(C(=O)CC2CC2)C[C@H]1C | 5.5 | -0.3
Cc1noc(C)c1S(=O)(=O)Nc1ccc2c(c1)C(=O)N([C@@H](C)CO)C[C@H](C)[C@H](CN(C)C(=O)NC1CCCCC1)OCCCC[C@H](C)O2 | -15.3 | -21.4
C[C@@H]1CCCCO[C@@H](CN(C)Cc2ccc(C(=O)O)cc2)[C@H](C)CN([C@H](C)CO)C(=O)c2cc(NC(=O)Cc3ccccc3)ccc2O1 | 4.3 | 11.0
COc1ccc2c3c(n(C)c2c1)[C@@H](CO)N(C(=O)Nc1ccc(F)cc1)CC31CN(C(=O)c2ccccc2F)C1 | · | ?
C[C@H]1CN([C@@H](C)CO)C(=O)Cc2cc(NS(=O)(=O)c3cccs3)ccc2O[C@@H]1CN(C)Cc1ccccc1 | -8.2 | -8.0
C[C@@H]1CN([C@@H](C)CO)C(=O)c2cc(NC(=O)Nc3ccccc3)ccc2O[C@@H](C)CCCCO[C@H]1CN(C)Cc1ccccc1 | · | ?
N#C[C@H]1[C@H](c2ccc(C#Cc3ccc(F)cc3)cc2)[C@H](CO)N1c1nc(-c2ccccc2)cs1 | -6.2 | -4.0
CC(=O)N(C)C[C@@H]1Oc2cc(C#CCC(C)C)ccc2S(=O)(=O)N([C@H](C)CO)C[C@@H]1C | 6.1 | -5.5
C[C@H]1CCCCO[C@@H](CN(C)C(=O)NC2CCCCC2)[C@@H](C)CN([C@@H](C)CO)C(=O)c2cc(NS(=O)(=O)c3ccc(Cl)cc3)ccc2O1 | · | ?
Cc1ccc(S(=O)(=O)Nc2ccc3c(c2)C(=O)N([C@H](C)CO)C[C@@H](C)[C@@H](CN(C)S(C)(=O)=O)O3)cc1 | -0.2 | 14.2
CC(C)NC(=O)N[C@H]1C=C[C@@H](CC(=O)NCCN2CCCC2)O[C@H]1CO | 1.8 | 2.5
O=C(CC1CC1)N1CC2(C1)[C@@H](c1ccccc1)[C@@H](CO)N2C(=O)c1ccccn1 | 1.9 | -1.1
C[C@H]1CN([C@@H](C)CO)S(=O)(=O)c2ccc(C#CC3CC3)cc2O[C@H]1CN(C)C(=O)C1CC1 | -4.7 | -7.7
COc1ccc(NC(=O)N(C)C[C@@H]2Oc3ccc(NS(=O)(=O)c4cccs4)cc3C(=O)N([C@@H](C)CO)C[C@@H]2C)cc1 | 3.8 | 5.1
COc1ccc(NC(=O)Nc2ccc3c(c2)[C@@H]2C[C@H](CC(=O)NC4CCCCC4)O[C@H](CO)[C@@H]2O3)cc1 | -6.5 | -4.6
O=C(NCC[C@H]1CC[C@H](NC(=O)C2CCOCC2)[C@H](CO)O1)c1cc(Cl)cc(Cl)c1 | 15.3 | 13.5
CNC[C@@H]1Oc2ccc(NC(=O)Nc3cccc4ccccc34)cc2CC(=O)N([C@H](C)CO)C[C@@H]1C | 5.2 | 6.2
C[C@@H]1CN([C@H](C)CO)C(=O)c2ccccc2-c2ccccc2CO[C@H]1CN(C)C(=O)[C@H]1CCCN1C | 4.1 | 13.6
COc1ccc(-c2ccc([C@@H]3[C@H](CO)N4CCCCN(C(=O)Cc5ccccc5)C[C@@H]34)cc2)cc1 | · | ?
COCC(=O)Nc1ccc2c(c1)C(=O)N(C)C[C@@H](OC)[C@@H](C)CN(Cc1cncnc1)[C@H](C)CO2 | 7.7 | 5.2
CCNC(=O)C[C@@H]1CC[C@H]2[C@H](COc3ccc(NC(=O)Cc4ccccc4)cc3C(=O)N2C)O1 | 7.0 | 2.3
CNC(=O)C[C@H]1CC[C@H]2[C@H](COc3ccc(NC(=O)C4CCCCC4)cc3C(=O)N2C)O1 | 14.4 | 14.1
CC(=O)N(C)C[C@@H]1Oc2ncc(-c3ccc(C)cc3)cc2C(=O)N([C@@H](C)CO)C[C@@H]1C | -1.2 | 9.5
O=C(C1CC1)N1CCCCN2[C@@H](CO)[C@@H](c3ccc(C#CC4CCCC4)cc3)[C@@H]2C1 | -27.1 | -33.3
CN(C)Cc1cn(CC[C@H]2CC[C@@H](NS(=O)(=O)c3ccccc3)[C@H](CO)O2)nn1 | 8.5 | 9.8

2 records picked at random from those above, as already listed:
compound | Vaccinia stage Venus | Vaccinia stage
CNC[C@@H]1Oc2ccc(NC(=O)Nc3cccc4ccccc34)cc2CC(=O)N([C@H](C)CO)C[C@@H]1C | 5.2 | 6.2
CNC(=O)C[C@H]1CC[C@H]2[C@H](COc3ccc(NC(=O)C4CCCCC4)cc3C(=O)N2C)O1 | 14.4 | 14.1

Single records, from the list above. Order of values: Vaccinia stage Venus, Vaccinia stage
CC(=O)N(C)C[C@@H]1Oc2ncc(-c3ccc(C)cc3)cc2C(=O)N([C@@H](C)CO)C[C@@H]1C is entered as -1.2, 9.5
O=C(C1CC1)N1CCCCN2[C@@H](CO)[C@@H](c3ccc(C#CC4CCCC4)cc3)[C@@H]2C1 is entered as -27.1, -33.3
N#C[C@H]1[C@H](c2ccc(C#Cc3ccc(F)cc3)cc2)[C@H](CO)N1c1nc(-c2ccccc2)cs1 is entered as -6.2, -4.0
COCC(=O)N1C[C@@H](C)[C@H](OC)CN(C)C(=O)c2cc(NC(=O)c3cc(C)on3)ccc2OC[C@H]1C is entered as 9.7, -1.3
C[C@H]1CCCCO[C@@H](CN(C)C(=O)NC2CCCCC2)[C@@H](C)CN([C@@H](C)CO)C(=O)c2cc(NS(=O)(=O)c3ccc(Cl)cc3)ccc2O1 is entered as ·, ?

Additional compounds follow.
compound | Vaccinia stage Venus | Vaccinia stage
O=C(Cc1cccnc1)N1CC(=O)N2[C@@H](CO)[C@H](c3ccc(C#CC4CCCCC4)cc3)[C@@H]2C1 | -29.8 | -32.2
Cc1noc(C)c1S(=O)(=O)N(C)C[C@H]1OCCCC[C@H](C)Oc2ccc(NC(=O)C3CCCCC3)cc2C(=O)N([C@@H](C)CO)C[C@H]1C | -6.2 | -5.7
CN1C(=O)c2cc(NC(=O)c3cscn3)ccc2OC[C@H]2O[C@H](CC(=O)NCc3ccc(Cl)c(Cl)c3)CC[C@H]21 | · | ?
Cc1cc(C(=O)Nc2cccc3c2O[C@H](CN(C)Cc2ccc(C(F)(F)F)cc2)[C@H](C)CN([C@H](C)CO)C3=O)n(C)n1 | 1.0 | 6.5
Cc1ccc(OC(=O)N(C)C[C@@H]2OCc3cn(nn3)CCCC(=O)N([C@@H](C)CO)C[C@H]2C)cc1 | -1.6&12.4 | -4.3&3.2
C[C@@H]1CN([C@H](C)CO)C(=O)c2cccc(NC(=O)c3ccc(-c4nccs4)cc3)c2O[C@H]1CN(C)Cc1ccncc1 | -20.8 | -17.8
C[C@@H](NC(=O)C[C@@H]1CC[C@@H]2[C@H](COc3ccc(NS(=O)(=O)c4ccc(Cl)cc4)cc3C(=O)N2C)O1)c1ccccc1 | -20.6 | -19.7
CNC(=O)C[C@@H]1CC[C@H]2[C@H](COc3ccc(NC(=O)Nc4ccc(F)c(F)c4)cc3C(=O)N2C)O1 | 5.8 | 4.0
C[C@@H]1CN([C@@H](C)CO)C(=O)Cc2cc(NS(=O)(=O)c3cn(C)cn3)ccc2O[C@H]1CN(C)Cc1ccc(C(=O)O)cc1 | 10.6 | 10.8
CCCNC(=O)N(C)C[C@H]1Oc2cc(-c3ccc(C)cc3)ccc2S(=O)(=O)N([C@@H](C)CO)C[C@H]1C | -20.3 | -20.7
C[C@@H]1CN([C@H](C)CO)C(=O)c2cc(C#Cc3ccccn3)cnc2O[C@H]1CN(C)C(=O)c1ccccn1 | 6.1 | 2.9
CC(C)CC#Cc1cnc2c(c1)C(=O)N([C@H](C)CO)C[C@H](C)[C@@H](CN(C)C(=O)Cc1cccnc1)O2 | 8.4 | 3.2
CO[C@H]1CN(C)C(=O)c2cc(NC(=O)c3ccccc3F)ccc2OC[C@H](C)NC[C@@H]1C | 0.3 | -1.3
C[C@H]1CN([C@@H](C)CO)S(=O)(=O)c2ccc(-c3cccc(C#N)c3)cc2O[C@H]1CN(C)Cc1cccc(F)c1 | -12.4 | -20.6
C[C@H](CO)N1C[C@H](C)[C@H](CN(C)C(=O)Nc2ccccc2)Oc2ccc(NC(=O)Cc3ccccc3)cc2CC1=O | 15.6 | 12.9
C[C@H](CO)N1C[C@H](C)[C@H](CN(C)Cc2ccc(C(F)(F)F)cc2)OCCCC[C@H](C)Oc2ccc(NC(=O)c3ccccc3)cc2C1=O | · | ?
O=C(C[C@H]1CC[C@H]2[C@@H](COC[C@@H](O)CN2Cc2ccc(Cl)cc2)O1)NCc1cccc(F)c1 | · | ?
C[C@H]1CCCCO[C@@H](CN(C)C(=O)C2CCCCC2)[C@@H](C)CN([C@@H](C)CO)C(=O)c2cc(NC(=O)Cc3ccccc3)ccc2O1 | · | ?
CCCNC(=O)N1C[C@H]2[C@@H](c3ccccc31)[C@H](CO)N2CC1CCCCC1 | 6.1 | 7.3
CC(C)C#Cc1ccc([C@@H]2[C@@H](CO)N3CCCCN(C(=O)Nc4ccccc4)C[C@H]23)cc1 | · | ?
CCCN1[C@H](C(=O)OC)[C@@H](CO)[C@@H]2Cn3c(ccc(-c4ccc(OC)cc4)c3=O)[C@@H]21 | 11.3 | -8.3
C/C=C/c1ccc([C@H]2[C@@H](CO)N3CCCCN(C(=O)Nc4cc(F)ccc4F)C[C@@H]23)cc1 | -5.4 | -9.0
C[C@@H]1CN([C@H](C)CO)C(=O)c2cccc(NC(=O)c3cnccn3)c2O[C@@H]1CN(C)Cc1ccc(-c2ccccc2)cc1 | -17.1 | -21.9
CS(=O)(=O)Nc1ccc2c(c1)[C@@H]1C[C@@H](CC(=O)NC3CCCC3)O[C@@H](CO)[C@@H]1O2 | 0.4 | 7.6
C[C@@H]1CN([C@@H](C)CO)C(=O)c2cccc(NC(=O)Nc3ccc(C(F)(F)F)cc3)c2O[C@H]1CN(C)Cc1ccncc1 | 2.2 | 7.9
CCC(=O)N(C)C[C@@H]1Oc2cc(C#CC3CC3)ccc2S(=O)(=O)N([C@H](C)CO)C[C@@H]1C | 0.0 | 9.8
C[C@H](CO)N1C[C@H](C)[C@H](CN(C)C(=O)c2ccccc2F)Oc2ncc(-c3cncnc3)cc2C1=O | 6.6 | 24.1
C[C@H](CO)N1C[C@H](C)[C@H](CN(C)S(C)(=O)=O)Oc2ccc(NS(=O)(=O)c3ccccc3)cc2CC1=O | 8.1 | 8.1
C[C@H]1CCCCO[C@@H](CN(C)C(=O)Nc2ccccc2)[C@@H](C)CN([C@@H](C)CO)C(=O)c2cc(NC(=O)NC3CCCCC3)ccc2O1 | -0.8 | 11.2
C[C@@H]1CCCCO[C@@H](CN(C)C(=O)c2ccccc2)[C@H](C)CN([C@@H](C)CO)C(=O)c2cc(NC(=O)NC3CCCCC3)ccc2O1 | -3.4 | -5.4

(next part)
compound | Vaccinia stage Venus | Vaccinia stage
COC(=O)C[C@@H]1C[C@H]2c3cc(N)ccc3O[C@H]2[C@H](CO)O1 | 6.2 | -0.3
C/C=C/c1ccccc1[C@@H]1[C@@H](CO)N(C(=O)Cc2ccccn2)[C@H]1C#N | -0.8 | -5.5
C[C@@H]1CN([C@@H](C)CO)C(=O)Cc2cc(NC(=O)CCCCCC(=O)Nc3ccccc3N)ccc2O[C@H]1CN(C)C(=O)Nc1ccccc1 | -10.1 | -15.1
CC(C)NC(=O)Nc1ccc2c(c1)CC(=O)N([C@@H](C)CO)C[C@H](C)[C@H](CN(C)C(=O)Nc1cccc3ccccc13)O2 | 11.6 | 7.7
N#C[C@H]1[C@H](c2ccccc2)[C@H](CO)N1C(=O)c1cccnc1 | 2.2 | 5.6
CC(=O)N1[C@H](C(=O)Nc2nccs2)[C@@H](CO)[C@@H]2Cn3c(ccc(/C=C/c4ccccc4)c3=O)[C@@H]21 | 12.9 | 9.0
Cc1cccc(-c2ccc(C3[C@H]4CNC[C@@H]3N4C(=O)Nc3ccc(F)cc3)cc2)c1 (stereo partly drawn) | 14.8 | 7.7
C[C@@H]1CN([C@@H](C)CO)C(=O)Cc2cc(NC(=O)CCC(F)(F)F)ccc2O[C@@H]1CN(C)S(C)(=O)=O | 1.6 | 4.3
CO[C@H]1CN(C)C(=O)c2ccc(NC(=O)c3ccc(F)cc3)cc2OC[C@@H](C)N(C(=O)CC2CC2)C[C@@H]1C | 4.9 | -5.3
COc1ccc(NC(=O)Nc2ccc3c(c2)[C@H]2C[C@H](CC(=O)NCc4ccc5c(c4)OCO5)O[C@@H](CO)[C@H]2O3)cc1 | 7.0 | 7.3
CN(C)CC(=O)N[C@H]1C=C[C@H](CC(=O)O)O[C@@H]1CO | 9.5 | 13.3
C[C@@H]1CCCCO[C@@H](CN(C)C(=O)c2ccccc2)[C@H](C)CN([C@H](C)CO)C(=O)c2cc(NC(=O)C3CCCCC3)ccc2O1 | -7.8 | -6.5
COc1ccc2c3c(n(C)c2c1)[C@H](CO)N(CC1CCCC1)CC31CN(C(=O)Nc2ccccc2)C1 | -16.0 | -25.3
O=C(Cc1ccccn1)NCC[C@H]1CC[C@@H](NS(=O)(=O)c2ccc(Cl)cc2)[C@H](CO)O1 | -2.9 | 0.8
C[C@@H]1CN([C@@H](C)CO)C(=O)Cc2cc(NC(=O)Nc3ccccc3)ccc2O[C@H]1CN(C)C(=O)Nc1ccc2c(c1)OCO2 | -7.3 | 1.4
CC(C)(C)[S@](=O)N1Cc2cc(C(=O)NCc3ccncc3)nc(-c3cccc(-c4cccc(C#N)c4)c3)c2[C@@H]1CCO | 2.5 | -2.1
